Assay outcomes (PubChem BioAssay)
VDR inhibitor: inhibitors of human vitamin D receptor; P11473; VDR-SRC2-3 peptide fluorescence polarization, 2 h; Potency, µM, for the others: max response, negative = inhibition, usual class: inhibitors; 400,000 compounds, 0.93% hits; AID 504847; active means well fitted inhibition curve with a large enough effect; inconclusive means small, poorly fitted or top-dose-only effect, or another doubt; inactive means no such curve, though single readings can be large or run the other way; further: series mostly up to about 120 µM
Target sequence (P11473 whole entry, looked up): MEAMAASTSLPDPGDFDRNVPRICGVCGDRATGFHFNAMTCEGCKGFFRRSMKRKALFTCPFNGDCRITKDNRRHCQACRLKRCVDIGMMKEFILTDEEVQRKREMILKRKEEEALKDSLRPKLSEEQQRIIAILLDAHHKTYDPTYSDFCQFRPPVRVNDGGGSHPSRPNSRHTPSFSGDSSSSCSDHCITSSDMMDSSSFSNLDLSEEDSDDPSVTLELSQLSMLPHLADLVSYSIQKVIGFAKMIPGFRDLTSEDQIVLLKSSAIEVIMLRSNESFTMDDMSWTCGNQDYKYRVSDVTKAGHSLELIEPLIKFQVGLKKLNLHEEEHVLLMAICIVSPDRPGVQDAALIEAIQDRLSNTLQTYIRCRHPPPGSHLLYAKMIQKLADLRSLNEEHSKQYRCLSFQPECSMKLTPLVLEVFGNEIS
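VDR–SRC2-3 interaction, FP format. Cmpds 23 nl via pintool, brief spin, 2 h ambient incubation.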
An asterisk follows results filed as active; ? = inconclusive; & = joins results of further samples. On the % scale 0 is the no-effect control and ±100 the full control effect; potency means the concentration at half of the fitted maximal effect. This is a subset; the hit share may differ from the screen's.

SMILES	VDR inhibitor
COc1ccc(-c2nn(-c3ccccc3)cc2C(=O)N/N=C/c2ccc([N+](=O)[O-])o2)cc1	-10%
Cn1nc(-c2ccccc2)c(-c2nc(-c3ccccc3Cl)no2)c1Cl	9%
CCCn1nnnc1NC(=O)COc1ccc(Br)cc1	0%
CCN1CCN(C(=S)NC(=O)c2cccc(Br)c2)CC1	2%
CC1(C)CC(=O)CC(=Nc2ccc(C(=O)O)cc2)C1	2%
CCOC(=O)c1ccc(N2C(=O)Cc3cc(OCC)c(OCC)cc3C2c2ccccc2)cc1 (stereo not drawn)	-2%
CCCN1CNc2c(c(=O)[nH]c(=S)n2CCc2c(Cl)cccc2Cl)C1	-26%
CC(C)CC1NC(=S)N(Cc2ccccc2)C1=O (stereo not drawn)	-3%
Cc1cccc(N2CCN(Cc3nc(-c4cccc(Cl)c4)oc3C)CC2)n1	-1%
CCOC(=O)N1CCN(C(=O)c2cn(C)c(=O)c3c2c2ccccc2n3C)CC1	-7%
CCCCOC(=O)Nc1sc2nc(C)cc(C)c2c1-n1cccc1	6%
O=C(NCc1ccc(Cl)cc1)C1CCN(S(=O)(=O)c2cccnc2)CC1	8%
Cc1ccc2sc(-c3ccc(NC(=O)/C=C\C(=O)O)cc3)nc2c1	?
COc1ccc(OC)c(CNC(=O)CCCn2c(=O)c3cccn3c3cccnc32)c1	11%
O=C(CSc1nnc(CNC(=O)C23CC4CC(CC(C4)C2)C3)n1-c1ccc(F)cc1)Nc1ccc(F)cc1	-23%
O=C(O)c1cc(N=Nc2ccc(O)c(C(=O)O)c2)ccc1O	-10%
CCc1nnc2c3cnn(-c4ccccc4)c3ncn12	1%
O=C(Cc1ccccc1)Nc1scc(-c2ccccc2)c1C(=O)N1CCOCC1	15%
O=C(Nc1ccc(-c2nc3cc(Cl)ccc3c(=O)o2)cc1)c1ccco1	?
Cc1ccc(-c2nnc(Nc3ccc(C(=O)N(C)C)cc3)c3ccccc23)cc1S(=O)(=O)NC(C)(C)CO	6%
O=C(COc1ccc(Cl)cc1Cl)NN=C1c2ccccc2-c2ccccc21	-6%
CC(C)CNC(=O)C(=O)NNC(=O)c1ccco1	7%
CCN(CC(=O)Nc1c(F)cccc1F)C(=O)/C=C/c1ccc(C)cc1	0%
Cc1ccc(C(C(=O)NCc2ccc(F)cc2)N(C(=O)c2csnn2)C2CC2)o1 (stereo not drawn)	8%
Cc1cc(C)c2c(=O)[nH]c(=O)n(Cc3ccccc3)c2n1	-22%
Cc1ccc(O)c(-c2[nH]ncc2C(=O)c2ccc(Br)cc2)c1	-13%
COc1cc(C#N)ccc1OC(=O)C1CCN(C(=O)c2ccc(F)cc2)CC1	9%
C#CCOCCOCCOCCNc1nc(N2CCOCC2)nc(N2CCN(C(=O)[C@H](Cc3ccc(O)cc3)n3cc(CCO)nn3)CC2)n1	-1%
CCc1nnc(NS(=O)(=O)c2ccc(NC(=O)c3ccccc3)cc2)s1	-5%
Cc1cc(NC(=O)c2ccccc2)nc2c1c(=O)oc1ccccc12	2%
N#Cc1ccccc1OCc1cn(CC(=O)c2ccc(O)cc2)nn1	?
CCOc1ccc(C(O)Cc2nc3ccccc3n2C)cc1 (stereo not drawn)	8%
OCc1cccc(Cl)c1Cl	-9%
Cc1nonc1C1CCCN1C(=O)c1cc(COc2ccc(F)cc2F)on1 (stereo not drawn)	-3%
O=C(O)CSCC(=O)NCc1ccc(Cl)cc1	0%
O=C(NCC1CCCO1)c1ccc2nc(N3CCCCC3)sc2c1 (stereo not drawn)	-3%
Cc1ccc(-c2cc(C(=O)N3CCN(S(=O)(=O)c4ccc(Br)cc4)CC3)[nH]n2)c(C)c1	10%
O=S(O)S(=O)(=O)O	6%
CCC(C)c1ccc(NC(=O)c2ccco2)cc1 (stereo not drawn)	-10%
Cc1ccc(NN2C(=O)C=C(c3ccccc3)C2=O)cc1	25µM*
CC1(C(=O)OCC(=O)Nc2cccc(S(=O)(=O)NC3=NCCCCC3)c2)CC1(Cl)Cl (stereo not drawn)	1%
COCCNC(=O)C(OC(=O)c1ccco1)c1ccccc1Cl (stereo not drawn)	0%
CSC1=NC(=O)/C(=C/c2ccc(SC)cc2)S1	-18%
COc1ccc2oc(C(=O)NC3CCCCC3)c(C)c2c1	21%
CCOc1cc(/C=C2\C(=O)N(Cc3ccco3)C(C)=C2C(=O)OC)ccc1O	?
COc1ccc(-c2nn(CCC(=O)O)cc2/C=N/NC(N)=S)cc1	-4%
COc1ccc(OCCCC(=O)Nc2cc(S(=O)(=O)N3CCCCC3)ccc2C)cc1	1%
CCC(=O)Oc1c(Sc2ccc(Cl)cc2)c(C)nn1-c1ccccc1	79µM*
Cc1cccc(N2CCN(S(=O)(=O)c3ccc(F)c(C(=O)Nc4cccc(Cl)c4C)c3)CC2C)c1 (stereo not drawn)	2%
COc1ccc(S(=O)(=O)N(C)C[C@H]2Oc3c(NC(=O)NC(C)C)cccc3C(=O)N([C@H](C)CO)C[C@@H]2C)cc1	-1%
CCCOc1ccc(N2CC(C(=O)Nc3ccccc3F)CC2=O)cc1 (stereo not drawn)	-2%
Cc1cccc(Nc2nc(-c3cccs3)cs2)n1	15%
Cc1ccccc1OCCC(=O)OCC(=O)NCCc1ccccc1	6%
Cc1cccc(N2CCN(C(=O)C3CC(=O)N(c4ccc5c(c4)OCCO5)C3)CC2C)c1 (stereo not drawn)	-2%
CC(=O)N[C@@H]1C(O)OC(CO)C(O)C1O (stereo partly drawn)	6%
C=CCn1cc(C(=O)N2CCN(c3ccccc3)CC2)c(=O)c2cc(S(=O)(=O)N3CCCC3)ccc21	16%
CN1Cc2c(N3CCOCC3)nc3sc(C#N)c(N)c3c2CC1(C)C	5%
COc1ccc(-c2noc(-c3nnn(-c4ccc(C(C)C)cc4)c3C)n2)cc1OC	-2%
Cc1ccc(C)c(S(=O)(=O)N2CCCOC2CNC(=O)C(=O)NCc2ccco2)c1 (stereo not drawn)	-18%
Cc1nn(CC(=O)Nc2ccc(C(=O)N(C)C)cc2)c(=O)c2ccccc12	-4%

Arranged by count of non-hydrogen atoms (lowest first): part of the list above.
SMILES	VDR inhibitor
CC(=O)N[C@@H]1C(O)OC(CO)C(O)C1O (stereo partly drawn)	6%
CSC1=NC(=O)/C(=C/c2ccc(SC)cc2)S1	-18%
Cc1cccc(Nc2nc(-c3cccs3)cs2)n1	15%
COc1ccc2oc(C(=O)NC3CCCCC3)c(C)c2c1	21%
COCCNC(=O)C(OC(=O)c1ccco1)c1ccccc1Cl (stereo not drawn)	0%
COc1ccc(-c2nn(CCC(=O)O)cc2/C=N/NC(N)=S)cc1	-4%
CCC(=O)Oc1c(Sc2ccc(Cl)cc2)c(C)nn1-c1ccccc1	79µM*
CCCOc1ccc(N2CC(C(=O)Nc3ccccc3F)CC2=O)cc1 (stereo not drawn)	-2%
Cc1nn(CC(=O)Nc2ccc(C(=O)N(C)C)cc2)c(=O)c2ccccc12	-4%
CCOc1cc(/C=C2\C(=O)N(Cc3ccco3)C(C)=C2C(=O)OC)ccc1O	?
COc1ccc(-c2noc(-c3nnn(-c4ccc(C(C)C)cc4)c3C)n2)cc1OC	-2%
COc1ccc(OCCCC(=O)Nc2cc(S(=O)(=O)N3CCCCC3)ccc2C)cc1	1%
Cc1cccc(N2CCN(C(=O)C3CC(=O)N(c4ccc5c(c4)OCCO5)C3)CC2C)c1 (stereo not drawn)	-2%
Cc1cccc(N2CCN(S(=O)(=O)c3ccc(F)c(C(=O)Nc4cccc(Cl)c4C)c3)CC2C)c1 (stereo not drawn)	2%
C=CCn1cc(C(=O)N2CCN(c3ccccc3)CC2)c(=O)c2cc(S(=O)(=O)N3CCCC3)ccc21	16%
COc1ccc(S(=O)(=O)N(C)C[C@H]2Oc3c(NC(=O)NC(C)C)cccc3C(=O)N([C@H](C)CO)C[C@@H]2C)cc1	-1%

(cont.)
SMILES	VDR inhibitor
COc1ccc2c(=O)c(-c3ccccc3)c(C)oc2c1	-9%
COc1ccccc1N1CCN(C(=O)c2cc(S(=O)(=O)N3CCCCC3)ccc2C)CC1	-8%
COc1ccc(-n2nnnc2SCC(=O)c2ccc(O)c(O)c2)cc1	18%
COc1cc2c(cc1OC)CN(c1nc(CN3CCCC3)nc3sc(C)c(C)c13)CC2	7%
O=C(CN1C(=O)C2CCCCC2C1=O)Nc1nc(-c2ccccn2)cs1 (stereo not drawn)	-8%
O=c1[nH]c(SCc2cccc(Cl)c2)nc2c1CCC2	14%
NC(=O)c1c(NC(=O)c2cccc(N3C(=O)CCC3=O)c2)sc2c1CCCCC2	9%
Cc1c2cnn(CC(=O)N3CCN(c4ccc(F)cc4)CC3)c(=O)c2c(C)n1Cc1ccc(F)cc1	16%
Cc1ccc(C)c(N(CC(=O)N/N=C/c2ccc(-c3ccc([N+](=O)[O-])cc3)o2)S(=O)(=O)c2ccccc2)c1	23%
Nc1ccccc1SCC(=O)Nc1ccc2c(c1)OCCO2	-10%
CC(C)Oc1ccc(N2CC(C(=O)NC3=NCCS3)CC2=O)cc1 (stereo not drawn)	-26%
CC(=O)Nc1ccc(NS(=O)(=O)c2cc(Cl)ccc2Cl)cc1	-3%
Cc1cc2ncn(C(=O)N3CCCCCC3)c2cc1C	-14%
O=C(CC1(O)C(=O)Nc2ccccc21)c1cccc(-n2cccc2)c1 (stereo not drawn)	4%
COc1ccc(-c2noc(CCC(=O)NCCc3ccccc3)n2)cc1	-11%
COc1ccc(Cc2nc(=S)[nH][nH]2)cc1Br	-11%
CCC(=O)Nc1ccc(S(=O)(=O)Nc2ccccn2)cc1	2%
O=C(CN1C(=O)c2ccccc2C1=O)Nc1cc(C(=O)O)cc(C(=O)O)c1	-3%
Cc1nnsc1C(=O)N1CCCC(N2CCN(c3ccc(F)cc3)CC2)C1 (stereo not drawn)	-7%
Cc1ccc(NC(=O)c2cc(NC(=O)C3CC=CCC3C(=O)O)ccc2N2CCOCC2)cc1 (stereo not drawn)	4%
Cc1ccc(N(CC(=O)NCc2ccc(F)cc2)S(=O)(=O)c2c(C)n[nH]c2C)cc1	?
COCCn1c(C)cc(C(=O)COC(=O)CNC(=O)c2ccccc2)c1C	4%
COc1ccc(/C(C)=N/Nc2nccnc2Cl)cc1	-8%
CC(CN1CCOCC1)C(=O)c1ccccc1 (stereo not drawn)	4%
COCC(C)n1c(C)cc(C(=O)CSc2nc3ccccc3c(=O)[nH]2)c1C (stereo not drawn)	-13%
COC(=O)c1sc(S(=O)(=O)Nc2ccc(C)cc2)c(C(=O)OC)c1C	-10%
COc1cccc(N2CCN(C(=O)c3ccc(CS(=O)c4ccccc4C)o3)CC2)c1 (stereo not drawn)	-20%
COc1ccccc1OCC(=O)NNC(=O)C(=O)N1CCCC1	0%
Cc1oc2c(c(C)cc3oc(=O)c(CC(=O)NCCc4ccccc4)c(C)c32)c1C	19%
O=C(c1ccco1)n1nc(NCc2ccccc2)nc1NCc1ccccc1	-3%
CCCCn1c(N)c(N(CCC(C)C)C(=O)COC(=O)c2ccccc2)c(=O)[nH]c1=O	-15%
O=C(O)c1ccccc1NCc1cccs1	-11%
COc1ccccc1CNC(=O)c1oc2ccc(S(=O)(=O)N3CCOCC3)cc2c1C	-14%
CC1CCN(c2c(NCc3ccc(C(=O)NCC4COc5ccccc5O4)cc3)c(=O)c2=O)CC1 (stereo not drawn)	3%
CCc1c(C)sc2c1CCN(Cc1ccccc1C#N)C2c1ccccc1 (stereo not drawn)	-1%
O=C1c2ccccc2C(=O)N1CCn1nc(Cl)nc1Cl	6%
O=C(Nc1ccccc1OC(F)F)c1oc2ccccc2c1COc1ccccc1	3%
CC(C)C(O)(C#CCN1CCCC1)c1ccccc1 (stereo not drawn)	13%
CC(C)CCNC(=O)/C=C/c1ccc(Br)cc1	-3%
COc1ccc(CNC(=O)CCc2nc(-c3ccc(OC)cc3)no2)cc1	-20%
O=S(=O)(c1ccc(-c2cnc(C3CC3)o2)cc1)N1CCN(c2ccccc2F)CC1	11%
COc1cccc(-n2c(SCC(=O)Nc3cc(C)on3)nc3c([nH]c4ccccc43)c2=O)c1	-13%
Fc1ccc2[nH]c3c(c2c1)CN(C(=S)NCc1ccccc1)CC3	4%
N#Cc1c(NC(=O)CSc2nc(-c3ccccc3)cc(C(F)(F)F)n2)sc2c1CCC2	-2%
CCCCC(CC)C(=O)Oc1ccc(O)c(C(C)(C)C)c1 (stereo not drawn)	-9%
O=C(CCC(=O)Nc1ccccc1)NNS(=O)(=O)c1ccc(Cl)cc1	-16%
C[N+]1(CC(=O)Nc2ccc(F)cc2)CCN(C(=O)c2ccco2)CC1	12%
COc1cc(C(=O)NCC2CCCCC2)ccc1OCc1c(C)noc1C	-2%
CCC(NS(=O)(=O)c1ccc(C)cc1)C(=O)N1CCC2(O)CCCCC2C1 (stereo not drawn)	26%
CC1=C(c2ccccc2)CCC1=O	-15%
O=C(Nc1ccc(N2CCOCC2)c(Cl)c1)c1ccc([N+](=O)[O-])o1	-8%
CC12CC3(C)CC(C)(C1)CC(C(=O)NC(=S)NC(C)(C)C)(C2)C3	9%
O=C(O)CCCn1nc(-c2ccccc2)c2ccccc21	0%
CC(=O)NCC(=O)OCC(=O)Nc1ccc(C(C)=O)cc1	9%
CC(C)NC(=O)NC(=O)COC(=O)c1ccc(S(=O)(=O)NCc2ccco2)cc1	-13%
COc1ccccc1NS(=O)(=O)c1ccc(C(=O)NCC(c2cccs2)N2CCOCC2)cc1 (stereo not drawn)	-8%
Cc1ccc(C(=O)N/N=C\c2sccc2C)cn1	-14%
CS(=O)(=O)C1=NSC2=NC(=O)/C(=C\c3ccc(OC(=O)c4ccco4)c(Br)c3)C(=N)N21	?
Cc1sc2cc3c(c(C(=O)c4ccccc4)[n+]2c1C)-c1cccc2cccc-3c12	8%
COC(=O)c1ccccc1NC(=O)CSc1nc(O)c(-c2ccccc2)c(=O)[nH]1	1%
Later entries
SMILES	VDR inhibitor
O=C(Nc1ccc2[nH]c(=O)[nH]c2c1)c1ccc(Cl)c(Cl)c1	11%
CCOC(=O)[C@H](CCc1ccccc1)N[C@H]1CCc2ccccc2N(CC(=O)O)C1=O	-12%&8%
O=C(c1ccco1)N1CCN(Cc2nc3ccc([N+](=O)[O-])cc3c(=O)n2-c2ccccc2F)CC1	-1%
CCOc1cc(C(c2c(C)[nH][nH]c2=O)c2c(C)[nH][nH]c2=O)ccc1O	?
